Cruzain inh noDet: inhibitors of Trypanosoma cruzi cruzain without detergent. P25779. purified cruzain, Z-FR-AMC fluorescence, no detergent. Potency, µM, for inactives: max response, negative = inhibition, usual class: inhibitors. hit rate 2.3% among 200,000. AID 1476; active = well fitted curve in the direction sought with a large enough effect; inconclusive = small, poorly fitted or top-dose-only effect, or another doubt; inactive = no such curve, though single readings can be large; an effect the other way counts as inactive or inconclusive;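 also: plate controls were enzyme without inhibitor for no effect and buffer without enzyme for full effect; nearly all actives have a fitted effect of over 40% in size; top concentration of the series not given in the record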
Target sequence (P25779 123-467 limits assumed): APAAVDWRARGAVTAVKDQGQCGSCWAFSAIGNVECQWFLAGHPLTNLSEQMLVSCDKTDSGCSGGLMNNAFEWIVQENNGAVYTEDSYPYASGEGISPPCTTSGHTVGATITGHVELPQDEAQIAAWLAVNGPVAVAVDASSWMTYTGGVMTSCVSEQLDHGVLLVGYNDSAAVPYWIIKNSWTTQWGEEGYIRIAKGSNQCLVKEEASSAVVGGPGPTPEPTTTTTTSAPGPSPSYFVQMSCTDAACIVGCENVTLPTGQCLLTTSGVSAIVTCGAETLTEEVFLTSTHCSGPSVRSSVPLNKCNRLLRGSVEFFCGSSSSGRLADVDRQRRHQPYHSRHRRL
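Detergent-free condition (0.00005% Triton X-100) in acetate buffer pH 5.5 with DTT. 1.5 nM enzyme and compound were pre-mixed 15 min, then 2 uM Z-FR-AMC substrate added; reaction progress from fluorescence change between first and third reads (60 s).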
Lassa entry inh: Lassa virus entry inhibition | Lassa virus pseudotype entry inhibition, cell reporter; control for the full effect not named in the record | hit rate 1.2% among 300,000 | Potency, µM (series often up to 37.9 µM), for inactives: at the top dose activity change, negative = inhibition, actives largely listed as inhibitors; active means well fitted inhibition curve with a large enough effect; inconclusive means small, poorly fitted or top-dose-only effect, or effect the other way; inactive means flat fitted curve, though single readings scatter; tested in HEK293 cells; also: % is scaled to controls: 0 for no effect and ±100 for the full control effect; nearly all actives have a fitted effect of over 50% in size; luciferase read-out
Cruzain Triton: cruzain (T. cruzi) inhibition with detergent | purified cruzain, Z-FR-AMC fluorescence, 0.01% Triton | P25779 | AID 1478 | Potency, µM, for the others: max response, negative = inhibition, hits mostly inhibitors | hit rate 0.43% among 200,000; active = well fitted curve in the direction sought with a large enough effect; inconclusive = small, poorly fitted or top-dose-only effect, or another doubt; inactive = no such curve, though single readings can be large; an effect the other way counts as inactive or inconclusive;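 also: plate controls were neutral wells for no effect and buffer without enzyme for full effect; nearly all actives have a fitted effect of over 40% in size; top concentration of the series not given in the record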
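In this qHTS format, compounds are incubated with 1.5 nM cruzain for 15 min at room temperature before 2 uM Z-FR-AMC is added. Release of AMC is followed at 360/450 nm, and progress is taken as the 60 s fluorescence difference.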
RE007 growth inh: less growth of the S. pombe RE007 Vpr strain. S. pombe RE007 Vpr strain, BacTiter-Glo ATP luminescence, 24 h; control for the full effect not named in the record. Potency, µM (titrated, usually from 92.2 µM), for inactives: top-dose activity change, negative = less growth. hit rate 0.21% among 360,000. AID 651644; active = well fitted falling curve with a large enough effect; inconclusive = small, poorly fitted or top-dose-only effect; inactive = no such curve, though single readings can be large or run the other way;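 also: % is scaled to controls: 0 for no effect and ±100 for the full control effect; nearly all actives have a fitted effect of over 50% in size; the assay follows cell death caused by Vpr and the record does not say whether a fall means rescue or toxicity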
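Fission yeast strain RE007, carrying one chromosomally integrated HIV-1 vpr copy, was seeded at OD 0.01 in PMG+AL medium with 23 nL pinned compound. After 24 h at 30 °C and 99% humidity, viability was read by BacTiter-Glo luminescence.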
SARS PLP yeast: inhibitors of SARS-CoV papain-like protease in yeast. S. cerevisiae expressing SARS-CoV PLpro, growth rescue; control for the full effect not named in the record. Potency, µM (highest dose often 32.9 µM), inactives show at the top dose activity, positive = growth rescue. hit rate 0.19% among 330,000. AID 485353; also: 0% is about no effect; nearly all actives have a fitted effect of over 55% in size; growth read by luminescence after 48 h
NS1 inh: blocks influenza NS1 protein function; S. cerevisiae slowed by influenza A NS1, growth recovery by OD600; Potency, µM (titrated, usually from 46.1 µM), inactives show at the highest dose activity, positive = more growth; hit rate 0.4% among 270,000; AID 2326; also: actives are rising curves; nearly all actives have a fitted effect of over 50% in size
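Recovery from NS1-induced slow growth read by OD600 in budding yeast switched to galactose assay medium (pH 6.0, -URA) at 1:100 dilution. Compound 23 nl per well; the matching strain lacking NS1 serves as control.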
MARV entry inh: Marburg virus entry inhibition | Marburg virus pseudotyped entry inhibition, cell reporter; control for the full effect not named in the record; about a third of the inactives were read at about 46 µM | hit rate 1.8% among 300,000 | Potency, µM (series often up to 37.8 µM), for the others: at the top dose activity change, negative = inhibition, most hits filed as inhibitors; active = well fitted inhibition curve with a large enough effect; inconclusive = small, poorly fitted or top-dose-only effect, or effect the other way; inactive = flat fitted curve, though single readings scatter; tested in HEK293 cells; about a fifth of its hits are not listed in these tables; also: % is scaled to controls: 0 for no effect and ±100 for the full control effect; luciferase read-out
2A StopGo: lowers the luciferase signal of an FMDV 2A StopGo reporter; human cells with a luciferase reporter of 2A StopGo recoding; control for the full effect not named in the record; Potency, µM (doses to about 57.9 µM), without a hit: at the highest dose signal change, negative = less light; hit rate 1.2% among 410,000; AID 1159524; active = well fitted falling curve with a large enough effect; inconclusive = small, poorly fitted or top-dose-only effect; inactive = no such curve, though single readings can be large or run the other way; tested in HEK293T cells; also: % is scaled to controls: 0 for no effect and ±100 for the full control effect; nearly all actives have a fitted effect of over 45% in size; luciferase light after 4 h
* = called active by the depositor; ? = inconclusive; nt = not tested or not shown; & = joins results of further samples; [ ] = dose if it differs, or a comment. Unless noted, calls follow the shape of the dose curve; as a rule, active means well fitted rising curve with a large enough effect; inconclusive means small, poorly fitted or top-dose-only effect; inactive means no such curve, though single readings can be large or run the other way. Potency is read from the fitted curve at half-maximal effect.

SMILES	Cruzain inh noDet	Lassa entry inh	Cruzain Triton	RE007 growth inh	SARS PLP yeast	NS1 inh	MARV entry inh	2A StopGo
Cc1cccc(N2CCN(C(=O)C3CCC(=O)N(Cc4ccccc4F)C3)CC2)c1C (stereo unspecified)	nt	?	nt	?	-2%	-22%	14%	-4%
CC(C)(C)C(O)C(Oc1ccc(Cl)cc1)n1cncn1 (stereo unspecified)	5%	nt	5.4%	0%[18.4 µM]	-20%	-136%	nt	-8%
CCCc1nc(SCC(=O)Nc2nccs2)c2ccccc2n1	nt	?	nt	4%	0%	-4%	4%[46.1 µM]	-18%
CCN1CCN(c2nc(-c3ccc(F)cc3)cc(=O)[nH]2)CC1	nt	8%[46.1 µM]	nt	4%	-4%	4%	12%[46.1 µM]	-15%
CC(=O)N1CCc2cc(S(=O)(=O)C(C)CC(=O)Nc3ccc(OC(F)(F)F)cc3)ccc21 (stereo unspecified)	nt	nt	nt	6%	6%	16%	nt	-15%
COc1ccc(C2=NN(C(=O)C(O)c3ccccc3)C(O)(C(F)(F)F)C2)cc1 (stereo unspecified)	nt	-12%	nt	-4%	-3%	2%	?	11%
Cc1cc(C)cc(NC(=O)CSCc2cnn(-c3ccccc3)c2-n2cccc2)c1	5%	-6%	-1.6%	-14%	-6%	-79%	15%	-19%
CC1=C(C(=O)NCc2ccccc2)C(c2cc(Br)cc(Br)c2OC(C)C)NC(=O)N1 (stereo unspecified)	?	6%	-4.9%	1%	18%	7%	-26%	-11%
O=c1c2ccccc2nnn1CSc1nnc(-c2ccco2)o1	1%	?	-0.2%	-5%	?	-18%	11%[46.1 µM]	55%[activator]
Cc1oc(-c2ccccc2F)nc1CS(=O)(=O)CC(=O)N1CCN(c2ccc(Cl)cc2)CC1	?	?	-2.6%	nt	nt	nt	-27%[46.1 µM]	16µM*
Cc1coc2c(C)c3oc(=O)c4c(c3cc12)CCCC4	0%	3%	-0.5%	-4%	-2%	5%	-2%	18%
C[C@H](Cc1ccccc1)Nc1ncnc2c1ncn2[C@@H]1O[C@H](CO)[C@@H](O)[C@H]1O	nt	?	nt	-10%[18.4 µM]	nt	nt	?	15%&16%
O=[N+]([O-])c1ccc(-c2csc(N3CCc4ccccc4C3)n2)cc1	-15%	0%	-5.2%	-27%	-2%	4%	18%	-1%
C/C(=N\NC(=O)COc1ccccc1-c1ccccc1)c1cccnc1	nt	?	nt	0%	-3%	nt	?	-21%
Cc1cc(C)cc(N(CC(=O)NCCc2ccc(Cl)cc2)S(=O)(=O)c2c(C)noc2C)c1	-1%	-1%[46.1 µM]	-2.9%	nt	nt	nt	8%[46.1 µM]	-16%
O=C(Cc1ccccc1)N/N=C/c1ccc([N+](=O)[O-])s1	1%	?	3.7%	-24%	-41%	-38%	?	?
COc1ccc(C(=O)Nc2ccc(-c3cc4ccccc4oc3=O)c(C)c2)cc1OC	?	-19%[46.1 µM]	-2.0%	nt	nt	nt	nt	-7%
O=C(Cc1cc(=O)[nH][nH]1)N/N=C/C(Cl)=C/c1ccccc1	-18%&4%	5%&21%	-3.4%&-7.8%	-5%&-2%	12%&-2%	18%&16%	?	-15%&-22%
COCC(=O)NC1CCN(CC(=O)Nc2ccccc2[N+](=O)[O-])CC1	nt	-17%	nt	3%	0%	1%	23%[46.1 µM]	-3%
O=C(NCCS(=O)(=O)N1CCN(c2ccccc2F)CC1)c1ccc(F)c(F)c1	nt	1%[46.1 µM]	nt	1%	5%	nt	-23%	-13%
Cc1ccccc1OCCC(=O)Nc1ccc(S(=O)(=O)N(C)C2CCN(C)CC2)cc1	nt	-8%	nt	-5%	-3%	nt	-24%	-22%
CS(=O)(=O)c1ccc(Sc2nc3ccccc3[nH]2)c([N+](=O)[O-])c1	-11%	-25%	3.2%	18%	-8%	-17%	-15%	-19%
CCOC(=O)c1ccccc1NC(=O)N1CC(C)Oc2ccc(C)cc21 (stereo unspecified)	-2%	8%[46.1 µM]	-2.0%	nt	nt	nt	nt	0%
CCC(=O)N(Cc1cc2cc(OC)ccc2[nH]c1=O)c1ccc(C)cc1	nt	20%[46.1 µM]	nt	1%	2%	13%	18%[46.1 µM]	-14%
COCCN1C=C(C(=O)OC)C(c2ccc3c(c2)OCO3)C(C(=O)OC)=C1	19%	-29%	-1.6%	-4%	10%	0%	-2%	nt
COC(=O)c1c(C)[nH]c(C(=O)NCCc2ccc(S(N)(=O)=O)cc2)c1C	nt	nt	nt	8%	0%	0%	-3%[46.1 µM]	-11%
COc1ccc(N2CCN(C(=O)CCc3ccc(S(=O)(=O)NC(C)(C)C)cc3)CC2)cc1	nt	nt	nt	6%	-1%	-9%	nt	0%
CC(=O)Nc1sc(C)c(C)c1C(=O)OC1CCOC1=O (stereo unspecified)	5%	-3%	-0.1%	4%	0%	-11%	-8%	0%
O=C(Nc1cccc2ccccc12)c1ccc([N+](=O)[O-])s1	-9%	?	-4.3%	-16%	-25%	-29%	-26%	-16%
O=C(N/N=C/c1cnc2ccccc2n1)c1cccc(F)c1	3%	9%	-8.1%	0%	2%	-14%	4%	33%[activator]
O=C(COc1ncnc2sccc12)N1CCN(S(=O)(=O)c2ccc(Cl)cc2)CC1	-17%	-5%	0.6%	28%	3%	-3%	0%	-3%
COc1ccc(C(=O)C2CCCN(C(=O)c3ccc(CSC)o3)C2)cc1F (stereo unspecified)	nt	0%	nt	1%	7%	18%	0%	-14%
COc1cccc(-c2nc(CS(=O)(=O)CC(=O)NCCCc3ccccc3)c(C)o2)c1	-15%	-6%&5%[46.1 µM]	-0.3%	13%	-7%	?	0%&5%[46.1 µM]	?
COCc1ccc2oc(C(=O)O)cc2c1	-5%	-1%	2.8%	-4%	5%	8%	?	-1%
CC(C)(C)C1CCc2c(sc(NC(=O)c3cccc(Cl)c3)c2C(N)=O)C1 (stereo unspecified)	2%	11%[46.1 µM]	0.0%	nt	nt	nt	3%[46.1 µM]	-2%
CC(=O)Oc1cccc(N2C(=O)c3cccc4c([N+](=O)[O-])ccc(c34)C2=O)c1	nt	nt	nt	4%	-1%	-6%	nt	-11%
COC(=O)c1ccc(OC(=O)c2ccccn2)cc1	1%	25%	1.0%	-21%	-10%	-8%	21%	17%
Cc1ccn2c(C(=O)N/N=C\c3ccc4c(c3)OCO4)c(C)nc2c1	-5%	3%	-13%	-12%	-27%	-17%	?	-12%
COc1cc(S(=O)(=O)Nc2ccccc2C(=O)N2CCCC2)ccc1NC(C)=O	nt	-1%	nt	1%	0%	nt	?	3%
O=C(C1=C(O)C(=O)N(CCN2CCOCC2)C1c1ccncc1)c1ccco1 (stereo unspecified)	5%	-2%	-3.7%	8%[3.69 µM]	2%	2%	11%	-6%
CCCCn1c(-c2ccc(OC(F)F)cc2)nc2c1c(=O)[nH]c(=O)n2CC(C)C	nt	?	nt	-10%	2%	8%	?	39%[activator]
COCc1cc(C)nc2sc3c(c12)NC(c1ccccc1C(=O)O)N(c1cccc(C(F)(F)F)c1)C3=O (stereo unspecified)	?	1%[46.1 µM]	?	nt	nt	nt	1%[46.1 µM]	30%[activator]
CC(C)(C)c1ccc(OCCC(=O)Nc2cccc(S(=O)(=O)N3CCOCC3)c2)cc1	nt	?	nt	7%	-6%	-7%	?	25µM*
COCCN(C(=O)Cc1cccs1)C(C(=O)NCc1ccc(OC)cc1)c1ccc(C)cc1 (stereo unspecified)	4%	?	-7.4%	-8%	2%	-19%	?	nt
CCOc1ccc2nc(N3CCCC(C(=O)NCCc4ccc(C)cc4)C3)sc2c1 (stereo unspecified)	-17%	nt	-0.3%	nt	nt	nt	3%[46.1 µM]	13%
Cc1nnsc1Sc1ccccc1C(=O)O	nt	-1%[46.1 µM]	nt	3%	0%	nt	-17%[46.1 µM]	-22%
C/C(=N\NC(=O)c1ccc(OC2OCCOC2Oc2ccc(C(=O)N/N=C(\C)c3ccncc3)cc2)cc1)c1ccncc1 (stereo unspecified)	nt	nt	nt	-20%	-1%	3%	nt	-20%
Cc1ccc(NS(=O)(=O)c2cccc3nsnc23)cc1[N+](=O)[O-]	nt	nt	nt	4%	17%	3%	nt	59%[activator]
COc1ccccc1CCNC1CCCCCC1	nt	-8%	nt	1%	-2%	2%	-23%	-17%

Laid out differently: results already given.
The line under a structure holds: Cruzain inh noDet	Lassa entry inh	Cruzain Triton	RE007 growth inh	SARS PLP yeast	NS1 inh	MARV entry inh	2A StopGo
> COc1cc(S(=O)(=O)Nc2ccccc2C(=O)N2CCCC2)ccc1NC(C)=O
  nt	-1%	nt	1%	0%	nt	?	3%
> O=C(C1=C(O)C(=O)N(CCN2CCOCC2)C1c1ccncc1)c1ccco1 (stereo unspecified)
  5%	-2%	-3.7%	8%[3.69 µM]	2%	2%	11%	-6%
> CCCCn1c(-c2ccc(OC(F)F)cc2)nc2c1c(=O)[nH]c(=O)n2CC(C)C
  nt	?	nt	-10%	2%	8%	?	39%[activator]
> COCc1cc(C)nc2sc3c(c12)NC(c1ccccc1C(=O)O)N(c1cccc(C(F)(F)F)c1)C3=O (stereo unspecified)
  ?	1%[46.1 µM]	?	nt	nt	nt	1%[46.1 µM]	30%[activator]
> CC(C)(C)c1ccc(OCCC(=O)Nc2cccc(S(=O)(=O)N3CCOCC3)c2)cc1
  nt	?	nt	7%	-6%	-7%	?	25µM*
> COCCN(C(=O)Cc1cccs1)C(C(=O)NCc1ccc(OC)cc1)c1ccc(C)cc1 (stereo unspecified)
  4%	?	-7.4%	-8%	2%	-19%	?	nt
> CCOc1ccc2nc(N3CCCC(C(=O)NCCc4ccc(C)cc4)C3)sc2c1 (stereo unspecified)
  -17%	nt	-0.3%	nt	nt	nt	3%[46.1 µM]	13%
> Cc1nnsc1Sc1ccccc1C(=O)O
  nt	-1%[46.1 µM]	nt	3%	0%	nt	-17%[46.1 µM]	-22%

Compound activity (PubChem BioAssay)
